Beta2AR agonist: beta2AR agonists driving receptor internalization, primary screen, cell-based, FAP fluorogen, flow cytometry; 340,000 compounds, 0.43% hits; AID 504454, 2011; Am2.2-beta2AR cells; reference of the scale not given here; response, % (test concentration not listed); Beta-2 adrenergic receptor (Homo sapiens), P07550;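 active = response above a set limit, near 3 SD of response in nonfluorescent compounds, cut at about 42% in these data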;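 also: stock transfer was 100 nL into about 11 µL; a reference agonist was the positive control; negative values mostly stem from fluorescent compounds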
Target sequence (P07550 whole entry, looked up): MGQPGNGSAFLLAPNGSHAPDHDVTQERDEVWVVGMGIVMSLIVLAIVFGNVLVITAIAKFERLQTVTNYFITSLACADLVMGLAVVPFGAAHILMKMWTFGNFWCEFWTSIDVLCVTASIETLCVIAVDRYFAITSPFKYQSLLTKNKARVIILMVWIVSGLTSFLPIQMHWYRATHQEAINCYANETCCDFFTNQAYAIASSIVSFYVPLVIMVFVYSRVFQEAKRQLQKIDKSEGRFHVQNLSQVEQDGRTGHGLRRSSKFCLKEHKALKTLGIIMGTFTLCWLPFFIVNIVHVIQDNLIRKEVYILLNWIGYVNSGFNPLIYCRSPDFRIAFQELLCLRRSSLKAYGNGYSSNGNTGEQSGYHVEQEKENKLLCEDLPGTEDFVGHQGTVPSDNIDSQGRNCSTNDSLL
UCH37 DUB inh: inhibitors of human UCH37 deubiquitinase, primary screen, biochemical, Ub-AMC cleavage, fluorescence; purified proteasome/UCH37; inhibition, % (no concentration beside the values); 330,000 compounds, 0.33% hits; Ubiquitin carboxyl-terminal hydrolase isozyme L5 (Homo sapiens), Q9Y5K5;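 active = mean of two replicates above 20%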;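 also: 0% = compound-free wells with enzyme and 100% = wells lacking proteasome; stock transfer was 100 nL into about 20 µL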
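Material: human UCH37 enzyme supplied as purified proteasome complex. Measure: % inhibition of Ub-AMC cleavage fluorescence. Medium: pH 7.4 Tris-HCl (50 mM) with ovalbumin, ATP-MgCl2, DTT. Times: 30 min preincubation with enzyme, 25 min cleavage at room temperature. Detection: AMC fluorescence intensity at 355/460 nm.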
Ecoli rRNA inh: reduced GFP signal of wild-type E. coli, primary screen, bacterial rRNA inhibitor project, GFP/RFP fluorescence, OD600, single point. E. coli WT GFP vs humanized-ribosome RFP mutants, 24 h; hits give low values; DMSO median 0, no signal -100. GFP signal change (wild-type ribosome), % (no concentration beside the values). 350,000 compounds, 1.6% hits. AID 720706, 2013;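 active = significant combined selectivity score with lowered wild-type GFP, culture density cut under 30%, mutant RFP and density less affected; inactive = any of these conditions unmet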; also: one replicate is shown; some compounds called inactive have numbers as strong as hits
ALR inh: inhibitors of human ALR sulfhydryl oxidase, primary screen, biochemical, H2O2 detection, HRP-luminol luminescence, single point | FAD-linked sulfhydryl oxidase ALR (Homo sapiens), P55789 | purified ALR, DTT oxidation | inhibition, % (concentration not given with the values) | 290,000 compounds, 3.8% hits;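 active = mean and each replicate at 75% or more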;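 also: stock transfer was 7.5 nL into about 7.5 µL; 0% = neutral wells and 100% = wells with inactivated enzyme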
HNF4A DNA FP: change in binding of human HNF4A to DNA, primary screen, biochemical, fluorescence polarization, FITC-DNA; Hepatocyte nuclear factor 4-alpha (Homo sapiens), P41235; AID 1224865, 2016; 1 h; activity change, % at 10 µM; 360,000 compounds, 0.3% hits; in the data active = activity change above about 30%, passing the limit was not always enough;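 also: controls were the assay level and a saturating level of protein; the project sought stronger binding though the title names inhibitors; some compounds called inactive have numbers as strong as hits; positive values seem to mean higher polarization but the record does not say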
Target sequence (P41235 whole entry, looked up): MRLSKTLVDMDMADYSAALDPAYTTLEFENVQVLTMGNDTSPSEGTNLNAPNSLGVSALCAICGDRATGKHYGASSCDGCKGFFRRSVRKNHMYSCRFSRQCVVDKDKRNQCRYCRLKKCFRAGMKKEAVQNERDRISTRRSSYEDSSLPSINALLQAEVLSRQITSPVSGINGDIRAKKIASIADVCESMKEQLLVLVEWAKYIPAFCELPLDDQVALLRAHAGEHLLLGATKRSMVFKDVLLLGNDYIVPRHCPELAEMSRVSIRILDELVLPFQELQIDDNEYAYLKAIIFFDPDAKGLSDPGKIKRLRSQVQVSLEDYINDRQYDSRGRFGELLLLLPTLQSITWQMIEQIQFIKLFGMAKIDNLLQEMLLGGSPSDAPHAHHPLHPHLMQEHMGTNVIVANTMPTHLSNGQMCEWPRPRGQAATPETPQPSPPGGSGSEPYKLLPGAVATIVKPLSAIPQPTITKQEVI
E coli growth: E. coli growth inhibition, primary screen, OD600; Escherichia coli growth, 23 h; hits give low values; OD600 absorbance (test concentration not listed); 330,000 compounds, 0.21% hits; AID 1053175, 2014;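 active = OD600 absorbance below the run mean of sample wells minus 3.6 SD, in any replicate, cut at about 0.56 in these data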;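 also: stock transfer was 300 nL into about 60 µL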
FGF22 binding: binders of human FGF22 protein, primary screen, FGF22 synaptogenesis inhibitor project, biophysical, thermal shift, single point | calls only at 9.99 µM | AID 651658, 2012 | 340,000 compounds, 1.5% hits | Fibroblast growth factor 22 (Homo sapiens), Q9HCT0 | recombinant FGF22 thermal shift, SYPRO orange fluorescence; percent of sucrose octasulfate shift, DMSO zero;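 active = melting point raised past a set limit in the mean and every replicate; three in four hits are not shown here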
Ecoli rRNA inh OD600: recorded beside Ecoli rRNA inh, whose call it bears; OD600 change, %; measured here: OD600 growth;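 optical density of the mix in the first replicate; 0 = DMSO median and -100 = no signal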
Ecoli rRNA inh RFP: also measured in Ecoli rRNA inh; calls as there; RFP signal change, %; measured here: RFP humanized mutant strains;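 first replicate; 0 = DMSO median and -100 = no signal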
* = called active by the depositor; i = inactive; nt = no result given. Not all compounds are listed; rates above refer to the full screens.

#	SMILES	Beta2AR agonist	UCH37 DUB inh	Ecoli rRNA inh	Ecoli rRNA inh OD600	Ecoli rRNA inh RFP	ALR inh	HNF4A DNA FP	E coli growth	FGF22 binding
1	CN1CCN(c2ccccc2NC(=O)c2cc3c(s2)-c2ccccc2OC3)CC1	-1	-21	-2	-3	-1.6	50	4.1	0.63	i
2	Cc1n[nH]c(=S)n1-c1ccc(Cl)cc1	2	-0.5	7	10	1.5	89*	-0.8	0.72	i
3	COc1ccc(Cl)cc1NC(=O)c1nnn(CC(=O)Nc2ccc3c(c2)OCO3)c1N	-11	-2.2	2	3	-1.0	-8	-0.3	0.68	i
4	CCOc1nc2ccccc2nc1NS(=O)(=O)c1ccc(Cl)cc1	4	4.5	-3	-20	0.7	6	1.0	0.69	i
5	CCCn1c(N)c(N(CCOC)C(=O)c2cc3c(s2)CCCCC3)c(=O)[nH]c1=O	-4	0.0	6	10	-1.1	2	3.2	0.69	i
6	COc1cc(/C=N/NC(=O)c2cccc(S(=O)(=O)N3CCOCC3)c2)cc(OC)c1O	1	nt	12	1	0.9	51	3.5	nt	i
7	Cc1[nH]c(C)c(S(=O)(=O)Nc2cccc(Cl)c2C)c1C(=O)N1CCCCC1	7	4.0	2	-9	2.2	18	-0.3	0.68	i
8	Cc1ccc2nc(N/C(=N/S(=O)(=O)c3ccc(F)cc3)c3ccccc3)sc2c1	11	-110	9	1	0.1	nt	-3.6	0.73	i
9	CCCCN=Cc1sc2ccc(OCC)cc2c1O	6	-1.3	nt	nt	nt	11	3.0	0.62	nt
10	COCc1ccc(CN2CCC(n3nccc3NC(=O)CCCc3ccccc3)CC2)o1	0	0.4	1	0	1.3	-49	-1.7	0.69	i
11	Cc1cc(=O)n(CCO)c(O)c1C#N	2	0.3	nt	nt	nt	nt	3.1	0.68	nt
12	Cc1cc(NC(=O)CCOc2ccc(F)cc2)no1	-6	-1.1	-1	-22	-1.7	nt	-0.3	0.69	i
13	COc1ccc(-c2noc(CN(C)C(=O)Nc3ccccc3)n2)cc1	-1	1.4	-22	-35	15	-30	-1.7	0.72	i
14	CCOc1ccc2oc(C(=O)N(Cc3nnc(-c4ccccc4Cl)o3)C3CC3)c(C)c2c1	-1	-0.7	0	-4	-0.9	-12	2.8	0.68	i
15	Cc1ccccc1C(=O)N1CCN(c2ccccn2)CC1	1	-3.6	nt	nt	nt	-6	3.4	0.73	nt

Two entries from above, with two lines to a compound:
Results follow in this order: Beta2AR agonist | UCH37 DUB inh | Ecoli rRNA inh | Ecoli rRNA inh OD600 | Ecoli rRNA inh RFP | ALR inh | HNF4A DNA FP | E coli growth | FGF22 binding
8	Cc1ccc2nc(N/C(=N/S(=O)(=O)c3ccc(F)cc3)c3ccccc3)sc2c1
    11 | -110 | 9 | 1 | 0.1 | nt | -3.6 | 0.73 | i
15	Cc1ccccc1C(=O)N1CCN(c2ccccn2)CC1
    1 | -3.6 | nt | nt | nt | -6 | 3.4 | 0.73 | nt

Next section
#	SMILES	Beta2AR agonist	UCH37 DUB inh	Ecoli rRNA inh	Ecoli rRNA inh OD600	Ecoli rRNA inh RFP	ALR inh	HNF4A DNA FP	E coli growth	FGF22 binding
16	O=S(=O)(c1ccccc1)c1nnn2c1nc(NC1CCN(Cc3ccccc3)CC1)c1ccccc12	1	-121	8	12	-1.4	-4	3.1	0.65	i
17	CC(C)NC(=O)N1CCN(c2ccncc2S(=O)(=O)N2CCCCC2)CC1	-12	3.7	1	3	0.2	-2	4.2	0.71	i
18	OCC1(Cc2ccc(Cl)cc2)CCN(CCCc2ccccc2)CC1	7	2.0	-34	-58	40	-9	-0.3	0.58	i
19	Cc1ccc(-c2csc(NC(=O)C3CSC4(C)CCC(=O)N34)n2)cc1 (stereo unspecified)	8	nt	5	6	2.9	-5	1.1	nt	nt
20	CC1(C(=O)NS(=O)(=O)c2ccccc2Cl)CCN1C(=O)c1ccccc1 (stereo unspecified)	nt	nt	7	10	-0.9	nt	-0.2	nt	i
21	Cc1cc(NC(=O)CSc2cc(Cl)ccc2Cl)n(-c2ccccc2)n1	2	4.3	-28	-56	-3.7	-4	-1.6	0.68	i
22	Cc1ccccc1OCC(=O)NNC(=O)c1ccc(-n2cncn2)c([N+](=O)[O-])c1	-3	7.9	5	2	0.0	-24	-0.2	0.7	i
23	CC(C(=O)Nc1sc2c(c1C(=O)NCC1CCCO1)CCC2)N1C(=O)c2ccccc2C1=O (stereo unspecified)	4	1.0	nt	nt	nt	nt	3.4	0.68	i
24	COc1ccc(C2SCCN2C(=O)c2ccc([N+](=O)[O-])cc2)cc1 (stereo unspecified)	7	3.9	-4	-2	1.2	-7	-2.3	0.69	i
25	CCn1nc(C)c(CNC(=O)Nc2ccccc2C(=O)OC)c1C	2	-4.0	16	5	0.3	96*	-3.4	0.71	nt
26	O=C(CSc1nc2ccccc2s1)Nc1ccc2c(c1)oc1ccccc12	-3	-2.0	nt	nt	nt	-5	2.1	0.73	nt
27	CCc1nnc(NC(=O)CSc2ncc(-c3ccccc3)[nH]2)s1	-4	-2.3	-20*	-1.6*	6.5*	99*	-0.9	0.71	i
28	CC(C)=CCC1=C(OCC(=O)O)C(=O)c2ccccc2C1=O	-4	81*	46	-1	18	32	0.1	0.62	i
29	Cc1occc1-c1nnc(SCC(=O)NC2CCCCC2)o1	-10	-4.7	nt	nt	nt	1	-0.4	0.64	i
30	COc1ccc(NCc2nnc(SCc3ccc(Cl)cc3)n2-c2ccccc2)cc1	-5	-0.6	nt	nt	nt	-4	2.2	0.72	nt
31	CSc1ccc(CNCc2ccc3c(c2)OCO3)cc1	-7	-0.2	9	7	1.1	1	4.8	0.69	i
32	Cc1ccc(C(=O)COC(=O)CN2C(=O)C3C4CCC(C4)C3C2=O)cc1C (stereo unspecified)	8	-1.9	2	4	0.9	nt	3.0	0.71	i
33	Cn1ncc([N+](=O)[O-])c1C(=O)Nc1cccc(Cl)c1	4	4.3	-1	2	-1.2	0	2.5	0.68	i
34	Cc1cc2nc(-c3ccc(F)cc3)c(CC3CCCCC3)n2c(C)c1Br	nt	nt	19	14	0.9	nt	4.3	nt	i
35	Cc1cccc(CSc2nc3c(c(=O)[nH]2)CCC3)c1	-1	4.7	7	4	-3.8	-3	-4.5	0.7	i
36	COC(=O)C1=C(C)N(c2ccc(Cl)cc2)/C(=C/c2ccc(O)cc2)C1=O	-2	2.9	8	9	0.1	-2	0.9	0.68	nt
37	CCCCc1cc(=O)oc2c(C)c(OCC(=O)N3CCCC3)ccc12	2	-53	nt	nt	nt	-3	-3.1	0.64	i
38	Cc1ccccc1N1CCN(c2ccc(NC(=O)C3CCCCC3C(=O)O)cc2)CC1 (stereo unspecified)	3	7.5	nt	nt	nt	52	3.9	0.69	nt
39	CC12CCC(C(=O)n3c1nc1ccccc13)C2(C)C (stereo unspecified)	25	2.1	nt	nt	nt	-4	-2.9	0.64	nt
40	CCOc1ccc(S(=O)(=O)Nc2ccc(C(=O)NCCCN3CCOCC3)cc2)cc1	-7	-0.1	5	-5	-1.6	-8	3.5	0.7	i
41	Cn1nc(C(F)(F)F)c(CNC(=O)C(C)(C)CCl)c1N1CCOCC1	-2	-1.5	-1	-2	-0.7	nt	0.9	0.73	i
42	Cn1nc([N+](=O)[O-])c2c(-c3nc4ccccc4s3)c(N)n(C3CCCCC3)c2c1=O	18	7.5	nt	nt	nt	-1	-8.6	0.66	nt
43	CC(C)NC(=O)/C(C#N)=C\c1ccc(N(C)C)c(Br)c1	3	36*	-20*	-12*	3.9*	50	6.2	nt	nt
44	Cc1ccc(C(=O)Nc2cccc(S(=O)(=O)N(C)c3ccccc3)c2)o1	1	3.1	-8	-34	-4.3	0	-0.5	0.67	i
45	CC1=NN(C(C#N)c2ccccc2C)C(c2ccccc2)C1 (stereo unspecified)	0	2.1	-7	-7	-0.8	0	-2.7	0.72	i
46	COc1ccc(CNC(=S)Nc2cccc(F)c2)cc1	-9	3.2	-6	-4	2.1	nt	5.5	0.62	i
47	O=C1NC2(Nc3ccccc31)C(=O)Nc1ccc(Br)cc12 (stereo unspecified)	-9	-43	-1	-2	-9.4	-9	2.8	0.65	i
48	COc1ccc(OCC(=O)NNC(=O)c2cccs2)cc1	2	0.9	nt	nt	nt	1	-31	0.75	nt
49	Cc1ccc(N2C(N)=NC(N)=NC23CCCC3)c(C)c1	5	1.6	nt	nt	nt	-3	3.0	0.75	nt
50	C=CCN(c1ccccc1)S(=O)(=O)c1cccc(C(=O)NCC2CCCO2)c1 (stereo unspecified)	2	0.1	-3	-8	-0.8	0	-4.0	0.66	i
51	Cc1sc2ncnc(N/N=C/c3ccccc3O)c2c1C	5	nt	nt	nt	nt	91*	0.0	nt	nt
52	CCNc1cc(Nc2c(C)n(C)n(-c3ccccc3)c2=O)c([N+](=O)[O-])c2nonc12	-19	14	15	4	0.1	-3	-2.3	0.68	i
53	Cc1cc(C)cc(NCc2cc(=O)oc3cc(C)c(O)cc23)c1	16	1.2	-3	-11	1.2	3	1.8	0.72	i
54	COc1ccc([C@H]2C[C@@H](O)[C@H](n3cc(COC(=O)c4ccccc4)nn3)CN2Cc2cccs2)cc1	nt	nt	-2	-12	0.7	nt	6.3	nt	i
55	O=C(OCc1cn([C@@H]2CN(C(=O)c3cccs3)[C@@H](c3ccccc3)C[C@H]2O)nn1)c1ccccc1	nt	nt	-7	-15	1.5	nt	1.1	nt	i
56	CC(=O)Nc1ccc(N(C(=O)c2ccco2)C(C(=O)NC2CCCCC2)c2ccccc2)cc1 (stereo unspecified)	-6	2.2	0	-8	0.8	nt	-0.9	0.64	i
57	CC1CCN(c2ccc(-c3cccc(NC(=O)c4ccco4)c3)nn2)CC1	10	2.9	-10	-18	-1.0	nt	0.5	0.69	i
58	CCc1nc2ccccc2c(C(=O)OCC(=O)N(C)Cc2ccccc2)c1C	6	2.8	-34	-49	-11	-1	3.0	0.71	i
